Source: PubChem BioAssay (National Center for Advancing Translational Sciences (NCATS))
Menin-MLL FL inh: menin-MLL binding inhibition, fluorescein peptide | Fluorescence polarization, fluorescein-MLL peptide displacement from menin | FP activity change, % at 61.4 µM | 290,000 tested, under 10 active; inconclusive = falling polarisation curve, or a change in total fluorescence; inactive = total fluorescence flat and polarisation flat or rising; no compound was filed as active; the % refers to the polarisation; negative = inhibition;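 further: % of control where 0% means no effect; inhibitors lower the polarisation; unlabelled MLL peptide was the positive control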
TRPML1 inh: blocks the human TRPML1 channel | activity change, negative = inhibition, % (test concentration not listed) | 390,000 compounds, 0.02% hits | Q9GZU1 | TRPML1-inducible cells, Ca2+ dye fluorescence, FDSS; hits give low values; inhibition of EC80 agonist-evoked calcium signal; in the data active means activity change below about -50%; inconclusive means about -30% to -50%; inactive means above about -30%;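 further: stimulus is agonist 54-4 at its EC80 concentration; on the % scale 0 is the no-effect control and ±100 the full control effect; compound concentration not given in the record; the text of the record puts the active cut at -80%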
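TRPML1-DL cells, Tet-induced overnight (~16 h, 37 °C) at 1,500 cells/well, were loaded with Ca8 no-wash dye plus quencher for 45-90 min at room temperature. Compounds were pinned during FDSS kinetic reading; agonist 54-4 at EC80 (4 uM final) then added.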
TRPML1 ag: agonists of human TRPML1 channel; Q9GZU1; TRPML1-expressing cells, Ca2+ dye fluorescence, FDSS; host cell line not named in the record; reference of the full effect not given here; activation, % (test concentration not listed); 410,000 compounds, 0.12% hits; AID 624414; in the data active = activation above about 50%; inconclusive = about 30% to 50%; inactive = below about 30%; further: 0% is about no effect; the text of the record puts the active cut at 80%
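Kinetic FDSS Ca2+ read in Tet-induced TRPML1-DL cells (ABD Ca8 dye plus quencher, 45-90 min RT loading): baseline, then compound, then 110 s agonist window; EC80 agonist 54-4 at 4uM final added afterwards for a 110 s antagonist window.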
Sfp inh: inhibitors of Bacillus subtilis Sfp phosphopantetheinyl transferase; Q9F4F7; Biochemical Sfp PPTase activity, qHTS; Potency, µM, inactives show max response, negative = inhibition, hits mostly inhibitors; 310,000 compounds, 3.5% hits; active means well fitted inhibition curve with a large enough effect; inconclusive means small, poorly fitted or top-dose-only effect, or another doubt; inactive means no such curve, though single readings can be large or run the other way;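 further: the enzyme is Sfp with the accession as filed and its product quenches rhodamine fluorescence; potency means the concentration at half of the fitted maximal effect; 0% = enzyme reaction without inhibitor and -100% = no enzyme wells; top concentration of the series not given in the record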
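Reaction rates are the 30-min fluorescence difference (ex 525, em 598 nm) in wells containing 15 nM Sfp, 5 uM rhodamine-CoA and 12.5 uM BHQ-2-YbbR at pH 7.6 with 10 mM MgCl2.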
ClpP mod: qHTS Assay for Activators of ClpP; 340,000 compounds, 1.9% hits; Potency, µM (titrated, usually from 57.5 µM), without a hit: at the highest dose activity change, negative = active; purified B. subtilis ClpP, FRET peptide cleavage, 20 min; active = well fitted falling curve with a large enough effect; inconclusive = small, poorly fitted or top-dose-only effect; inactive = no such curve, though single readings can be large or run the other way; further: potency means the concentration at half of the fitted maximal effect; the source files actives as falling curves though it sought activators and does not explain the sign; nearly all actives have a fitted effect of over 65% in size; many hits overshoot -100%
Target sequence (P80244 whole entry, looked up): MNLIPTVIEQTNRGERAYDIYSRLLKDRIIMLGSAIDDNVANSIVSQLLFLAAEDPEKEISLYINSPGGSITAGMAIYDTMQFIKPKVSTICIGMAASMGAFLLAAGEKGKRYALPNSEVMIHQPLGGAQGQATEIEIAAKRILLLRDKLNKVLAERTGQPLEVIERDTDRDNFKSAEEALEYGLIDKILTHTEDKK
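Purified B. subtilis ClpP, 10 microg/mL final in Tris/HCl pH8 with KCl, BSA, glycerol and Tween-20, cleaved an Abz/nitrotyrosine-quenched decapeptide. Fluorescence (ex 320, em 430) was read at 0 and 20 min at room temperature. Delta was normalized to 5.8 microM ADEP and DMSO/no-enzyme controls.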
PINK1 modulator: PINK1 expression modulation; 410,000 compounds, 0.2% hits; Potency, µM (highest dose often 76.6 µM), for inactives: at the top dose activation (PINK1 increase), most hits filed as activators; AID 624263; PINK1 immunofluorescence, high-content cytometry, 24 h; active = well fitted activation curve with a large enough effect; inconclusive = small, poorly fitted or top-dose-only effect; inactive = flat fitted curve, though single readings scatter; cell line not stated here;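 further: potency means the concentration at half of the fitted maximal effect; % of control where 0% means no effect; nearly all actives have a fitted effect of over 65% in size; a mitochondrial uncoupler was the plate control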
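Measures PINK1 amount and localization on or inside mitochondria by immunofluorescence. Stable cells get compounds at 5 concentrations for 24 hours before fixation and staining; CCCP controls included.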
TRPV1 potentiator: enhances activation of the human vanilloid receptor TRPV1; TRPV1-expressing cells, Fluo-8 calcium influx, capsaicin EC20 potentiation; host cell line not named in the record; control for the full effect not named in the record; potentiation, % at 8.33 µM; 320,000 compounds, 0.02% hits; Q8NER1; active means potentiation above 80%; inconclusive means 30% to 80%; inactive means below 30%; further: 0% is about no effect
Target sequence (Q8NER1 whole entry, looked up): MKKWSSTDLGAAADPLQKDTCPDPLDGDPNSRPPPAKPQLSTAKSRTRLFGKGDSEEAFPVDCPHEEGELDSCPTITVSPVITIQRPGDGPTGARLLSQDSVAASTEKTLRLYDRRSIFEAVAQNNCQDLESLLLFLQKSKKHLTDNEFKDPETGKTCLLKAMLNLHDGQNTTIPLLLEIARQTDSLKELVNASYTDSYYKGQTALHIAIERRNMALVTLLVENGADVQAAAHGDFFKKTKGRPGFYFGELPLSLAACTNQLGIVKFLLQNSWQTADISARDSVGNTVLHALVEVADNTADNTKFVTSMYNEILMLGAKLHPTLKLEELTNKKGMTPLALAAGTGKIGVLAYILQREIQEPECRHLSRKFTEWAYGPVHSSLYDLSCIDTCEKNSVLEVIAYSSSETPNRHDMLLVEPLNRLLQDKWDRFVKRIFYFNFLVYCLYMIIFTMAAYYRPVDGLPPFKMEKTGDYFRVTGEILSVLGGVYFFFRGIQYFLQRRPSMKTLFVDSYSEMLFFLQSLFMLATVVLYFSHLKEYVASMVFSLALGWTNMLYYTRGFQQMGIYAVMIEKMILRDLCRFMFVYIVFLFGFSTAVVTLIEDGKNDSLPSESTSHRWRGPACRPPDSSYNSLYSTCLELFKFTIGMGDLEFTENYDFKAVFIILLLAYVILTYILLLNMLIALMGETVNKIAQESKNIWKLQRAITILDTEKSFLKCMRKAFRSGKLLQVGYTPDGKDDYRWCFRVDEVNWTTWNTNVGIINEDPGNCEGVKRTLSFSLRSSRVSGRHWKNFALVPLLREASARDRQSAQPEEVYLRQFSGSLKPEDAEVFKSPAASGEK
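Cells expressing TRPV1 were dye-loaded with Fluo-8 and read kinetically: 10 s baseline, 3 min after compound (agonist portion), then 2 min after EC20 capsaicin (allosteric enhancer portion). Calcium-bound dye fluorescence at 480/520 nm.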
Active calls of the source: *; ? = inconclusive; . = no result given; & = joins results of further samples; [ ] = remark or other dose. Rows are unselected, and some 4.4% of all compounds hit somewhere here.

SMILES	Menin-MLL FL inh	TRPML1 inh	TRPML1 ag	Sfp inh	ClpP mod	PINK1 modulator	TRPV1 potentiator
CCOC(=O)c1c(C)[nH]c(C(=O)CSc2nnc(-c3ccncc3)n2CC)c1C	2.5	-14.4	0.0	11.2%	-1.9%	1.2%[38.3 µM]	-1.1
Cc1nn(C)c(C)c1CN(C)C(=O)C1CCC(=O)N(C2CCCCCC2)C1 (stereo not given)	-5.3	3.8	0.5	8.5%	-7.2%	-0.5%	1.6
CCN(CC(=O)Nc1ccc(NC(C)=O)cc1)C(=O)CSc1ncnc2sc(C)c(C)c12	.	-5.2	0.8	.	-2.7%	?	-5.9
CCn1c(=O)c(=O)[nH]c2cc(C(=O)NC(C)c3ccc(S(N)(=O)=O)cc3)ccc21 (stereo not given)	-9.5	-11.6	-0.1	1.8%	.	1.8%	2.6
CCc1nn2c(=O)cc(COC(=O)c3ccccc3NC(=O)COc3ccc(C)c(C)c3)nc2s1	.	-14.3	1.5	.	4.5%	0.7%	.
CCN(c1cccc(C)c1)S(=O)(=O)c1nnc(NC(=O)c2ccccc2Cl)s1	.	14.8	2.9	.	-1.0%	-1.2%	.
COc1cc(NS(=O)(=O)c2ccc(N/C=C\C(=O)c3ccc(OC)c(OC)c3)cc2)nc(OC)n1	6.9	-8.2	-0.5	-13.9%	-11.7%	-0.6%	-10.8
Cc1cc(O)c(C=Nc2ccc(Cl)cn2)c(=O)o1	?	1.3	0.0	?	-22.1%	0.6%	7.4
CN(CC(=O)Nc1ccccc1C(=O)NC1CC1)Cc1ccco1	.	21.4	-0.3	.	0.4%	0.6%	16.8
CCOc1ccc(-c2nc(-c3ccc(OC)cc3)no2)cc1OCC	2.6	-1.0	0.0	?	31.6µM*	0.3%	-1.5
O=C1C([N+](=O)[O-])=C(O)c2cccc3cccc1c23	?	.	.	8.91µM*	.	.	27.9
CCC(=O)N1c2ccc(S(=O)(=O)CCC(=O)NCc3cccs3)cc2CC1C (stereo not given)	0.9	-5.8	-0.6	16.9%	0.9%	2.4%	-21.0
CCCNC(=O)Nc1nnc(C2CC2)s1	6.7	18.5	1.6	8.9%	-0.3%	1.5%	1.6
CCO[C@@H]1OC(C(=O)Nc2ccccc2)=C[C@H](c2ccc(C(F)(F)F)cc2)[C@H]1CCCO	-6.2	11.1	-0.5	9.2%	-0.9%	?	0.2
Cc1ccc(NC(=O)CN2C(=O)NC(C)(c3ccc(Cl)cc3)C2=O)c(Br)c1 (stereo not given)	-2.7	-13.1	5.8	1.5%	.	-1.9%	9.1
CN(C)C(=O)CCc1nc(-c2ccc(C(C)(C)C)cc2)no1	-3.8	-16.5	0.8	2.6%	-18.2%	-0.6%	-7.4
COc1ccccc1OCC(=O)NC1CC(C)(C)NC(C)(C)C1	-7.3	-2.8	1.0	12.0%	.	-0.1%	-8.2
Cc1ccc(C(=O)CN(C(=O)c2ccc(Cl)c(Cl)c2)N2C(=O)C3CCCCC3C2=O)cc1C (stereo not given)	6.5	8.5	0.4	3.9%	-0.1%	3.9%[38.3 µM]	15.4
CC(C)(C)c1ccc(C(=O)Nc2ccc(NC(=O)C(=O)O)cc2)o1	-3.3	17.6	1.2	16.3%	-0.6%	2.1%	1.0
O=C(NNc1nc(-c2ccccc2)c2cc(Br)ccc2n1)c1ccc(S(=O)(=O)N2CCCCC2)cc1	1.4	-8.2	-0.2	9.9%	1.2%	2.9%	11.9
CC(CN1CCCCC1)OC(=O)c1cc2ccccc2o1 (stereo not given)	-1.1	53.9	0.1	2.9%	-29.8%	4.0%	12.9
Cc1ccc(CNC(=O)C2CCN(S(=O)(=O)c3ccc4c(c3)CC(C)N4C(=O)C3CCC3)CC2)o1 (stereo not given)	4.4	-5.6	1.3	-21.3%	-1.6%	0.1%	1.8
CC(=O)N1CCN(c2ccc(NC(=O)c3ccccc3Br)cc2Cl)CC1	3.1	5.3	0.5	3.3%	0.5%	0.3%	3.9
CC(C)(C)NC(=O)Cc1ccc(S(=O)(=O)N2CCCC2)s1	3.3	-10.3	-0.6	?	-1.2%	0.1%	-18.6
CC1(c2ccccc2)NC(=O)N(CC(=O)Nc2ccc3c(c2)OCO3)C1=O (stereo not given)	3.4	-6.8	0.6	3.8%	2.2%	0.0%	-7.6
CC(=O)Nc1cccc(-c2nc3ccccc3s2)c1C	-2.4	0.5	0.1	10.6%	-1.2%	-0.4%	3.1
O=S(=O)(NCC1CCN(Cc2ccccc2)CC1)c1ccccc1C(F)(F)F	-4.9	-8.4	0.1	19.6%	.	3.7%	2.8
Cc1ccc(N2C(=O)N(CC(=O)Nc3ccc([N+](=O)[O-])cc3)C(=O)C2C)cc1 (stereo not given)	.	28.4	0.0	18.9%	0.6%	0.3%	12.0
O=C(c1ccccn1)N1CCN(S(=O)(=O)c2ccccc2)CC1	-2.2	-1.9	0.0	9.1%	.	1.4%	1.4
COc1cc(C(C)=O)ccc1Oc1ncnc2c1cnn2-c1ccc(F)cc1	6.4	-5.0	1.1	11.7%	-2.6%	12.3%	5.8
COc1ccccc1CNc1ccc(-c2nc(-c3cccnc3)no2)cc1[N+](=O)[O-]	.	11.3	-0.4	.	3.0%	?	.
CC1(C)C2CCC(C2)C1(C)NC(=O)CN1CCN(Cc2ccccc2)CC1 (stereo not given)	-4.7	-8.3	1.1	?	.	2.7%	0.3
CC(C)(C)OC(=O)C[C@H]1C/C=C\C[C@H](CC(=O)N(CCO)Cc2ccccc2)C(=O)N[C@H](C(C)(C)C)COC1=O	.	-6.3	-0.6	.	1.0%	1.3%	.
CCN(CC)C(=O)CS(=O)(=O)CC(=O)Nc1cc(OCCOC)c(Cl)cc1Cl	0.2	-5.3	-0.7	13.1%	.	-1.3%	1.8
O=C(CN1C(=O)C2CC=CCC2C1=O)Nc1cc(C(F)(F)F)ccc1N1CCCC1 (stereo not given)	.	15.0	0.9	.	.	-1.3%	-5.4
CCc1ccccc1N(CC(=O)N/N=C/c1ccc(OC(=O)OC)c(OC)c1)S(C)(=O)=O	3.5	4.6	-0.5	4.9%	1.8%	1.1%	-3.6
COc1ccc2c(c1)c1c(c(=O)n(CCc3ccccc3)c(=O)n1Cc1cccc(Cl)c1)n2C	.	-8.4	-0.3	.	4.3%	1.5%	.
Cc1cccc(N2NC(=O)/C(=C/c3ccc(-c4ccc(Cl)c(C(=O)O)c4)o3)C2=O)c1	14.4	1.3	-0.7	-12.4%	.	0.8%	?
Nc1nc(-c2ccc(S(=O)(=O)N3CCCCC3)cc2)cs1	.	-3.3	-0.5	.	4.2%	3.2%	-2.3
Cc1c(-c2ccccc2)c(=O)oc2ccc(O)cc12	-5.1	5.6	2.5	4.8%	22.0%	-0.1%	0.7
CC(C)(C)C(=O)Nc1ccccc1C(=O)NCc1ccco1	5.3	22.5	-0.9	14.8%	-5.6%	1.6%	-5.9
CCOc1ccc(CNC(=O)CCC(=O)n2nc(C)c3ccccc32)cc1	.	4.3	0.5	-11.5%	2.0%	-0.8%	4.6
CCOC(=O)c1c(C)oc2nc(C)nc(N3CCN(c4cc(Cl)ccc4C)CC3)c12	.	2.8	-0.1	.	?	-0.7%	.
Cc1ccn(-c2cc(O)c(-n3ccc(C)n3)cc2O)n1	0.4	-0.5	0.4	-46.8%	-6.4%	0.2%	-2.2
O=C(CNC(=O)c1ccc(F)cc1)c1ccc(Cl)cc1	2.5	-9.1	1.3	-15.4%	.	0.5%	-2.2
Cc1ccc(SCC(c2ccccc2)N2CCN(C)CCC2=O)cc1 (stereo not given)	-6.4	-0.9	0.8	4.0%	.	.	.
CCNC(=O)c1cc2c(c(-c3cccc(-c4cc5ccccc5o4)c3)n1)[C@H](CCO)N(C(=O)NC(C)C)C2	.	.	0.0	.	5.1%	1.7%	.
Cc1nonc1NC(=O)CSc1nc(CCC2CCCC2)nc2ccccc12	6.6	17.3	2.4	4.9%	-7.5%	-1.0%	7.1
CC(C)CNC(=O)c1ccccc1NC(=O)c1ccc(CSc2ccccc2)cc1	2.0	16.9	4.2	12.4%	?	8.6%	-0.3
CC(C)N=C1CCCC1C(=S)SSC(=S)C1CCCC1=NC(C)C (stereo not given)	.	-11.7	0.5	.	-0.3%	-2.1%	.

Next results follow:
SMILES	Menin-MLL FL inh	TRPML1 inh	TRPML1 ag	Sfp inh	ClpP mod	PINK1 modulator	TRPV1 potentiator
O=C(O)C1CCCN1S(=O)(=O)c1ccc(Br)s1 (stereo not given) (tested in a mixture with another compound)	1.4	5.4	0.4	20.8%	1.1%	-0.2%	-9.8
COC(=O)NNC(=O)Cc1cccc2ccccc12	-0.9	-22.0	-0.6	17.5%	0.6%	-1.3%	4.0
COc1ccccc1-n1c(Cc2cccs2)n[nH]c1=S	-1.3	-10.6	-0.8	13.7%	.	-0.5%	-0.3
O=C(NCCc1ccccc1Cl)c1ccc2nc3ccccc3c(=O)n2c1	0.2	.	.	-21.2%	3.9%	0.4%	2.2
CC(C)(C)OC(=O)N[C@H](/C=C/c1ccccc1)C(=O)OC(C)(C)C	.	-0.9	1.1	.	-1.6%	17.6%	-11.1
CCOC(=O)CCCn1nc(C)n2c(cc3sccc32)c1=O	-0.7	2.2	-1.4	11.5%	-0.5%	0.9%	2.3
COc1ccc(OC)c(CNC(=O)CCn2c(=O)c3cccn3c3ccc(F)cc32)c1	-4.6	6.3&17.8	-0.5&1.8	16.5%	-0.3%&-2.9%	3.0%&0.3%	?
Cc1ccc(S(=O)(=O)NC(Cc2ccccc2)C(=O)O)cc1 (stereo not given)	-5.7	13.6	-0.1	9.1%	0.7%	0.1%	1.3
Cc1cc(NC(=O)CCc2nc3cccnc3n2-c2ccccc2)ccc1Br	.	-20.5	1.6	.	2.0%	2.4%	.
COC(=O)c1cc(OC)c(OC)cc1NC(=S)N1CCN(C)CC1	3.5	-3.7	0.9	-9.3%	-19.2%	-3.5%[38.3 µM]	27.8
CC1CC(C)CN(Cc2nc(N)nc(Nc3ccc4ccccc4c3)n2)C1 (stereo not given)	-1.1	-2.7	-0.6	11.5%	-1.8%	5.5%	-11.6
